# RecA intein inh = Mtb RecA intein splicing inhibition; inhibition, %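 (about 9 µM by stock and volumes)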; cell-free RecA intein splicing, fluorescence; P9WHJ3; AID 2221; 290,000 compounds, 0.75% hits; in the data active means inhibition above about 30%;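 further: 0% = vehicle wells and 100% = reference inhibitor control wells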
# Target sequence (P9WHJ3 whole entry, looked up): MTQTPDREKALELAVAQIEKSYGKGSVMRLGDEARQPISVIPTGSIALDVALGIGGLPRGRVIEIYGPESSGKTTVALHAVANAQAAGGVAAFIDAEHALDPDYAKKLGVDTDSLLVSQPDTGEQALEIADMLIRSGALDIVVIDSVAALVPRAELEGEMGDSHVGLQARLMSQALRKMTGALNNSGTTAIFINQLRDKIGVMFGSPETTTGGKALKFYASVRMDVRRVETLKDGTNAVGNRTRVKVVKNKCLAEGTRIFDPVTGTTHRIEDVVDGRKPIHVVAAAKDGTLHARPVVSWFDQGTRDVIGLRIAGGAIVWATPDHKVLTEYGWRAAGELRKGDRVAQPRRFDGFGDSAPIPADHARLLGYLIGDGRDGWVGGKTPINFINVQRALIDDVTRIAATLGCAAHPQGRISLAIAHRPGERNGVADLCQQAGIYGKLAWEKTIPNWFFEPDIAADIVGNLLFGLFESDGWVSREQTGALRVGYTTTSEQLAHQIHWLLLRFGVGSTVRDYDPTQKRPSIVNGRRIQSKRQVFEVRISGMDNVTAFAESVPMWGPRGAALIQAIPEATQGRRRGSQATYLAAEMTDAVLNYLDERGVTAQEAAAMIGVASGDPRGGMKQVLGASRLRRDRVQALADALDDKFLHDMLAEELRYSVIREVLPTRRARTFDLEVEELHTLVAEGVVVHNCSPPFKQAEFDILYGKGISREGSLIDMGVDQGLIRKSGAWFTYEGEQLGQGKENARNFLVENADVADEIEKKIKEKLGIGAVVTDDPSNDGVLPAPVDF
# Mtb growth = M. tuberculosis H37Rv growth inhibitors, H37Rv strain (AID 1626); M. tuberculosis H37Rv growth inhibition; higher % means a stronger effect; one-dose inhibition, % at 10 µM; IC50 in µM for titrated hits; 220,000 compounds, 0.95% hits;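 active means confirmed in a dose series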;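 further: bacteria incubated seven days before Alamar blue readout; 0% = bacteria only wells and 100% = bacteria with antibiotic wells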
# Arbovirus inh = arbovirus infection inhibition; arbovirus infection cell-based antiviral screen; inhibition, % at 10 µM; 200,000 compounds, 0.37% hits; AID 1251;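 active means inhibition from about 30%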;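 further: bluetongue infection of BSR cells; cell survival read as ATP light after 72 h; 0% = infected wells without compound and 100% = uninfected wells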
# YopH PTP inh = blocks Yersinia enterocolitica YopH tyrosine phosphatase; fluorescence Ex485/Em525; inhibition, %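 (about 10 µM by stock and volumes)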; 140,000 compounds, 0.16% hits; AID 898;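 active means inhibition of 50% or more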;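 further: controls were vehicle for no effect and minimum signal wells for full effect; inactives centre near -20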
# Mtb betalactam = beta-lactam sensitization of Mtb H37Rv | M. tuberculosis H37Rv growth with meropenem, percent inhibition; hits of this screen are not shown here | inhibition, % at 25 µM | 330,000 compounds, 0.27% hits | AID 434955;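 active means about 74% or more and at least 40 points above the plate without the antibiotic, then above 30% in a dose series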;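 further: growth measured after seven days incubation then overnight dye step; 0% = bacteria only wells and 100% = bacteria with antibiotic; twin plates without the antibiotic show which effects depend on it; some results filed as inactive read as strong as hits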
# Arbovirus inh repeat = recorded beside Arbovirus inh, whose call it bears; inhibition, %; measured here: 10K subset replicate screen; many hits read low in the repeat;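 first of two repeat runs on a subset; 0% = infected and 100% = uninfected wells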
# Numbers without * were called inactive; nt = no result given. This is a subset; rates above refer to the full screens.
SMILES,RecA intein inh,Mtb growth,Arbovirus inh,YopH PTP inh,Mtb betalactam,others
COc1ccc(CNCCC2(C(C)C)CCOC(C)(C)C2)cc1 (configuration not stated),-1.4,-1%,nt,nt,-3,
Cc1nc(-c2ccccc2)sc1-c1ccn[nH]1,-2.8,20%,6,nt,15,
Cc1ccc(-c2cc(N)on2)cc1,-0.3,24%,-10,-6,39,
Cc1ccnc(SCC(=O)NC2CCCCCC2)n1,1.2,nt,nt,nt,-9,
Nc1ccc(SCc2nc3cccc4c3n2CCC4)cc1,-0.7,11%,nt,nt,2,
CCCCn1c(O)c(C(C)=NCCN2CCCCC2)c(=O)[nH]c1=O,1.7,-4%,1,-51,4,
CSc1nc2ccc3nc(NC(=O)C4COc5ccccc5O4)sc3c2s1 (configuration not stated),1.5,31%,14,-38,5,
CCc1ccc(C(=O)Cn2cnc3cc([N+](=O)[O-])ccc3c2=O)cc1,-3.2,-11%,nt,nt,-3,
CSc1nsc(N/N=C/c2ccccc2)c1C#N,-2.1,-2%,8,nt,19,
OCCC1CN(Cc2ccon2)CCN1CCc1ccccc1 (configuration not stated),-2.2,4%,3,nt,10,
O=C(Nc1cc(Cl)ccc1Cl)c1noc2c1CCCC2,0.9,5%,nt,nt,-2,
COc1ccc(NC2CCCN(C(=O)c3ccc(OC)o3)C2)cc1 (configuration not stated),-1.9,nt,nt,nt,-12,
O=C(CN1CCOCC1)Nc1ccc(Br)cn1,-0.9,-5%,17,-17,-4,
OC(COCc1ccco1)CN1CCN(C(c2ccccc2)c2ccccc2)CC1 (configuration not stated),nt,9%,-13,-10,4,
COc1ccccc1N1CCN(C2CCCN(C(=O)c3cccc(-c4ccco4)c3)C2)CC1 (configuration not stated),-2.1,nt,nt,nt,-4,
CCOC(=O)C1(Cc2ccccc2C(F)(F)F)CCN(Cc2ccon2)CC1,2.0,-8%,nt,nt,-3,
COc1cccc(C2Nc3ccccc3C(=O)N2O)c1O (configuration not stated),-0.6,2%,-11,-24,61,
COc1ccc(NC(=O)CS(=O)(=O)c2cn(CC(=O)N(C(C)C)C(C)C)c3ccccc23)c(OC)c1,1.0,nt,nt,nt,-3,
O=C(NCc1cccs1)c1noc2c1CCCCC2,-3.6,9%,-8,-21,0,
CC1(C)Cc2nc(-c3ccccc3)nc(SCC(=O)N3CCOCC3)c2CO1,0.8,nt,nt,nt,-2,
C#CCOCCOCCOCCNc1nc(N2CCN(C(=O)[C@H]([C@@H](C)CC)n3cc([C@@H](N)CC(C)C)nn3)CC2)nc(N2CCN(C(=O)[C@H](CCCCN)n3cc([C@@H](N)C(C)CC)nn3)CC2)n1 (some centres not stated),1.0,3%,1,nt,30,
Cn1nc(C(=O)NCCCN2CCCCC2)c2c1-c1ccccc1S(=O)(=O)C2,0.7,nt,nt,nt,0,
Cc1ccc(OCc2cc(C(=O)NCc3ccc(OC(F)(F)F)cc3)no2)cn1,-0.5,nt,nt,nt,75,
CCCN1CNc2c(c(=O)[nH]c(=S)n2CCc2ccc(OC)c(OC)c2)C1,-2.1,-14%,-1,nt,11,
O=C(NCCCNC(=O)c1cnccn1)c1cccc(F)c1,-0.1,nt,nt,nt,7,

# The list goes on, starting with the last 2 of the part before.
SMILES,RecA intein inh,Mtb growth,Arbovirus inh,YopH PTP inh,Mtb betalactam,others
CCCN1CNc2c(c(=O)[nH]c(=S)n2CCc2ccc(OC)c(OC)c2)C1,-2.1,-14%,-1,nt,11,
O=C(NCCCNC(=O)c1cnccn1)c1cccc(F)c1,-0.1,nt,nt,nt,7,
CCOC(=O)Cc1csc(NC(=O)CN(C)S(=O)(=O)c2cccc3cccnc23)n1,nt,-5%,-5,-34,2,Arbovirus inh repeat=-1
CCn1c(=S)sc2c(=O)n(CC(=O)Nc3ccc(C(C)=O)cc3)c(C)nc21,-1.7,nt,nt,nt,1,
Fc1cccc2sc(N3CCCC3)nc12,1.0,31%,11,nt,-8,
CN(C)S(=O)(=O)c1ccc(Cl)c(C(=O)Nc2nc3ccccc3[nH]2)c1,-1.7,9%,-1,nt,-5,
COc1ccc(Nc2c(-c3ccc(OC)cc3)nc3cnccn23)cc1,-0.7,1%,3,nt,4,
COCCN(C(=O)CCC(=O)Nc1ccccn1)C(C(=O)NC(C)C)c1ccc(C)cc1 (configuration not stated),-1.0,nt,nt,nt,-3,
O=C(CSc1ncnc2scc(-c3ccccc3)c12)N1CCN(Cc2ccc3c(c2)OCO3)CC1,10,-3%,-13,28,-6,
COc1cccc(C(=O)COC(=O)C2CC3CCCC(C2)C3=O)c1 (configuration not stated),1.6,nt,nt,nt,-6,
Cc1ccc2nsnc2c1S(=O)(=O)NCc1ccncc1,0.3,-3%,0,-18,-4,
O=c1c2ccccc2n(Cc2cccc(F)c2)c(=O)n1C1CCCC1,11,2%,-5,-50,-2,
CCN(c1ccccc1)S(=O)(=O)c1ccc(Cl)c(NC(=O)COC(=O)C2CC2C)c1 (configuration not stated),0.5,-3%,1,nt,-7,
COC(=O)CCC/C=C1/SCC(NC(=O)c2ccccc2)C1O (configuration not stated),0.6,8%,5,-91,13,
O=C(CCc1ccc(S(=O)(=O)N2CCOCC2)cc1)Nc1ccc(N2CCOCC2)cc1,-2.2,7%,9,-25,0,
COc1ccccc1/C=C/c1nc(S(=O)(=O)c2ccccc2)c(NCCN(C)C)o1,-2.5,nt,nt,nt,6,
CCOc1ccc2nc(NS(C)(=O)=O)sc2c1,-1.1,-12%,-6,0,13,
COn1c(=O)c(=O)n(OC)c2ccccc21,-3.3,2%,-1,5,-4,
O=C(CN1CCCCC1CO)c1ccc(OC(F)F)cc1 (configuration not stated),-1.4,-3%,6,nt,-5,
CCCCN(C(=S)Nc1ccccc1)C1CCS(=O)(=O)C1 (configuration not stated),-2.5,-3%,3,-26,-20,
CCc1ccc(CNC(=O)CCc2nnc(CCc3ccc(OC)cc3)o2)nc1,-0.8,-1%,5,nt,4,
O=Cc1cn(Cc2ccccc2)nc1-c1cccnc1,2.4,2%,4,nt,1,
CC1CC(C)CN(C(=O)C(Cc2ccccc2)n2cccc2)C1 (configuration not stated),5.3,2%,nt,nt,3,
O=S(=O)(c1cccs1)N1CCN(c2ccnc3cc(Cl)ccc23)CC1,10,6%,nt,nt,1,
Cc1ccc(NC(=O)CCn2c(=O)[nH]c3ccsc3c2=O)cc1F,1.1,nt,nt,nt,4,
N[C@@H](Cc1ccccc1)C(=O)N1CCC(C(=O)N[C@@H](CCC(=O)O)C(=O)O)CC1,1.0,nt,nt,nt,1,
O=C(CSc1nnc(Nc2ccccc2)s1)NCc1cccs1,2.2,0%,-10,-34,1,
SMILES,RecA intein inh,Mtb growth,Arbovirus inh,YopH PTP inh,Mtb betalactam,others
Cc1ccc(/C=C2\C(=N)N3N=C(CC(=O)N4CCOCC4)SC3=NC2=O)o1,3.7,nt,nt,nt,2,
CN1CCN(C(=O)COc2ccc(N(C)S(=O)(=O)c3ccc(F)cc3)cc2)CC1,0.3,2%,12,nt,-9,
COC(=O)COc1ccc(S(=O)(=O)Nc2ccccc2SC)cc1,3.4,-4%,-2,-35,-1,
CC(=O)OCCN1C(=O)c2ccc(-c3nc4ccccc4c(=O)o3)cc2C1=O,3.6,nt,nt,nt,72,
CCOC(=O)Nc1cc(=O)c2ccccc2o1,5.3,-2%,-23,-12,-4,
Cc1ccc2nc(-c3ccc(NS(=O)(=O)c4ccccc4)cc3)sc2c1,-1.6,10%,11,-3,-8,
CCCCc1cc(=O)oc2cc(C)cc(OCC(=O)N3CCC(C(=O)O)(c4ccccc4)CC3)c12,5.6,nt,nt,nt,-6,
O=C(NCCCN1CCOCC1)c1onc(CSc2ccncc2)c1C(=O)NCCCN1CCOCC1,2.4,-5%,nt,nt,-9,
C/C(=N/O)c1ccc(N2C(=O)C3C4C=CC(C3C2=O)C2C3C(=O)N(c5ccc(/C(C)=N/O)cc5)C(=O)C3C42)cc1 (configuration not stated),-0.4,0%,-8,nt,-5,
CCOC(=O)c1nnn(-c2nonc2-n2cccc2)c1CCl,70*,-5%,-3,-41,88,
COc1ccc(N(CC(=O)NCCSCc2ccc(Cl)cc2)S(C)(=O)=O)cc1Cl,3.9,nt,nt,nt,6,
O=C(Cn1c(-c2ccccc2)noc1=O)N1CCC(Cc2ccccc2)CC1,0.2,-1%,-1,nt,1,
CN1CCN(Cc2c(O)c(Cl)cc3c(-c4ccccc4)cc(=O)oc23)CC1,-194,-5%,9,-31,-10,
O=C(CN1C(=O)NC2(CCc3ccccc32)C1=O)c1ccc(F)c(F)c1 (configuration not stated),-2.0,nt,nt,nt,-7,
CC(C)(C)c1ccc(OCCC(=O)Nc2cccc(S(=O)(=O)N3CCCC3)c2)cc1,10,nt,nt,nt,-10,
COc1ccc(NC2=Nc3cccc4cccc2c34)cc1,3.2,26%,24,-28,66,
Cc1ccc(C)c(N(CC(=O)N(C)C)S(C)(=O)=O)c1,1.5,5%,3,5,-5,
CC(C)(C)NC(=O)C(c1ccncc1)N(C(=O)Cn1nnc(-c2ccc(F)cc2)n1)c1ccccc1F (configuration not stated),0.8,-8%,1,nt,nt,
C=CCn1c(NCCOC)nc2c1c(=O)n(C)c(=O)n2C,-0.2,-5%,15,-44,0,
Cc1cc(C)cc(OC(=O)COc2ccccc2C)c1,18,nt,nt,nt,2,
CCn1cc(/C=C/C(=O)Nc2ccn(Cc3c(F)c(F)c(F)c(F)c3F)n2)cn1,2.0,7%,-26,-7,6,
COc1cc(NC(=O)c2ccc(F)cc2)c(OC)cc1NC(=O)CN1CCCCC1,-0.2,nt,nt,nt,50,
CC(=O)OCCN(C)c1cc(SC(C)C)c2nonc2c1[N+](=O)[O-],34*,nt,-4,nt,-5,
COc1ccccc1C/C(N)=N/OC(=O)c1cccc([N+](=O)[O-])c1,-9.2,8%,3,-4,3,
Cc1[nH]c2ccccc2c1/C=C(\C#N)C(=O)NC(C)c1ccccc1 (configuration not stated),3.7,nt,10,-30,-3,

# Quoted at random: 2 entries already listed.
SMILES,RecA intein inh,Mtb growth,Arbovirus inh,YopH PTP inh,Mtb betalactam,others
CCCCc1cc(=O)oc2cc(C)cc(OCC(=O)N3CCC(C(=O)O)(c4ccccc4)CC3)c12,5.6,nt,nt,nt,-6,
COc1cc(NC(=O)c2ccc(F)cc2)c(OC)cc1NC(=O)CN1CCCCC1,-0.2,nt,nt,nt,50,

# Going on with the list.
SMILES,RecA intein inh,Mtb growth,Arbovirus inh,YopH PTP inh,Mtb betalactam,others
Cc1ccc2cc(CN(C(=O)c3ccco3)c3ccccc3)c(=O)[nH]c2c1,-2.9,-3%,4,-29,-3,
Cc1cc(C)c(NC(=O)C(C)OC(=O)c2cc(Br)c(Br)s2)c(C)c1 (configuration not stated),0.3,10%,0,-15,1,
O=C(Nc1ccc2cn[nH]c2c1)c1ccc(S(=O)(=O)N2CCOCC2)cc1,7.6,3%,1,nt,-5,
Cc1ccc(-c2nn3c(C)nnc3s2)cc1NC(=O)c1ccc(-c2ccc(Cl)cc2Cl)o1,nt,-8%,-34,-18,-5,
CCC(C)NC(=O)Cc1ccc(-c2ccccc2)cc1 (configuration not stated),1.8,-2%,-1,nt,2,
O=C(NCC1CCCO1)c1cc(-c2ccc(Cl)cc2Cl)on1 (configuration not stated),2.4,4%,0,-1,-2,
CCOC(=O)C1=c2s/c(=C\c3ccncc3)c(=O)n2C(N)=C(C(=O)OC)C1c1ccncc1 (configuration not stated),-2.1,-6%,25,nt,-4,
O=C(COC(=O)CCc1c[nH]c2ccccc12)NC(c1ccccc1)c1ccccc1,13,86%,-4,-44,11,
CCOC(=O)C(=CNc1ccc(-c2ccco2)c(Cl)c1)C(=O)OCC,6.1,-1%,nt,nt,92,
S=C(c1ccc2c(c1)OCO2)N1CCOCC1,-2.3,-8%,nt,nt,-14,
O=C(CCCN1C(=O)/C(=C/c2ccccc2Cl)SC1=S)NNC(=O)c1ccccc1Cl,0.1,7%,-3,-22,9,
CC1CCN(c2c(NCc3ccc(C(=O)N4CCc5ccccc54)cc3)c(=O)c2=O)CC1,2.8,13%,-15,-48,-4,
COc1cc(OC)c(-c2nnc3n(CCc4ccccc4)c(=O)c4ccccc4n23)cc1OC,2.4,7%,-3,-15,3,
O=C(Nc1ccccc1C(=O)N/N=C/c1ccncc1)c1ccccc1,0.0,2%,-2,nt,0,
COC(=O)c1ccc(N(CC(=O)NC2CCCC2)C(=O)CNC(=O)c2cccs2)cc1,0.4,nt,nt,nt,-12,
CCC(C(=O)N1CCc2cc(OC)c(OC)cc2C1)c1ccccc1 (configuration not stated),5.8,-3%,-4,-56,5,
Cc1ccc(NS(=O)(=O)c2c(C(=O)N3CCCCCC3)c(C)n(C)c2C)c(Cl)c1,0.8,nt,nt,nt,-1,
Cn1c(CN2CCOCC2)nnc1SCC(N)=O,0.7,8%,4,-20,6,
COc1cc(C=O)ccc1OC(=O)Nc1ccccc1,-1.1,nt,nt,nt,-9,
COC(=O)Nc1ccc2c(c1)ncn2C1CCCCC1,0.3,-2%,-2,-25,-4,
O=C(Nc1ccc2[nH]c(=O)[nH]c2c1)C(F)(F)F,-1.7,-6%,-3,nt,-7,

# High-throughput results: PubChem BioAssay, several laboratories
